High-throughput results: PubChem BioAssay, Johns Hopkins Ion Channel Center
KCNQ2 pot – potentiators of rat KCNQ2 potassium channel; AID 2239, 2010; CHO-K1 KCNQ2, FluxOR thallium flux fluorescence; active compounds read high; Potassium voltage-gated channel subfamily KQT member 2 (Rattus norvegicus), O88943; B-score at 10 µM; actives 0.54% (n = 310,000);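 active means fluorescence ratio B-score at least 3 SD of library B-scores, with initial fluorescence B-score within 3 SD, cut at about 5.3 in these data; same plate scores as AID 2156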;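 further: B-score of peak minus minimum over baseline fluorescence ratio after K+ and Tl+ stimulus; positive B-score means potentiation of KCNQ2 with more thallium influx and brighter signal; only the inactives scoring about 0 or higher are listed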
Target sequence (O88943 whole entry, looked up): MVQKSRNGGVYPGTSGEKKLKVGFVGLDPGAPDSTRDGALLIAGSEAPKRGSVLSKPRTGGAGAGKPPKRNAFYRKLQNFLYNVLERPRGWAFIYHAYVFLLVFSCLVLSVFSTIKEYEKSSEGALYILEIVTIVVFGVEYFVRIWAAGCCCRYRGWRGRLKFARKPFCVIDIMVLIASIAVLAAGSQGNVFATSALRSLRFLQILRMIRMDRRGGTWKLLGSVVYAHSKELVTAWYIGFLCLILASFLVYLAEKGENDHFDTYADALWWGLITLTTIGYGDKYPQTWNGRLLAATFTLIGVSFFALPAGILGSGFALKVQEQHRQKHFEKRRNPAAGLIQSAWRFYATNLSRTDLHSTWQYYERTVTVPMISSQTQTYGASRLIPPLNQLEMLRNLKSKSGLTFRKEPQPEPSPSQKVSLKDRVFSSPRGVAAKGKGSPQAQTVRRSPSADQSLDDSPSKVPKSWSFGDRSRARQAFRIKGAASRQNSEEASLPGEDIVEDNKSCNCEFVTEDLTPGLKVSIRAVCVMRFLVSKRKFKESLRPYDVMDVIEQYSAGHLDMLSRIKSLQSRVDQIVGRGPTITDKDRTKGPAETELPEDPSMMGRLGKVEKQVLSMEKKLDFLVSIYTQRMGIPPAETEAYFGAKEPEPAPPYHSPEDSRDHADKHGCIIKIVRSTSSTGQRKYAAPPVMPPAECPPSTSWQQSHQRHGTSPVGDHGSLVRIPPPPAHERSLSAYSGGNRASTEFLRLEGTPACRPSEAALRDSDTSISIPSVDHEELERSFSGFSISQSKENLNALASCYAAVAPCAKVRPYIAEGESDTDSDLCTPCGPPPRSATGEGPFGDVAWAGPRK
KCNQ2 pot baseline – also measured in KCNQ2 pot; calls as there; B-score; compound at 10 µM; measured here: initial fluorescence intensity artifact check;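 brightness before thallium and not channel activity; 0 = typical well and far values either way flag optical interference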
* = called active by the depositor. Only part of the results is shown; the hit share may differ from the screen's.

SMILES	KCNQ2 pot	KCNQ2 pot baseline
O=C(NCc1cccnc1)c1cc(-c2ccco2)on1	0.03	-0.03
CC(C)(C)c1cc(NC(=O)CCl)n(-c2ccccc2)n1	0.01	-1.8
CC1=C(C(=O)Nc2cc(C(=O)NCCC(C)C)ccc2C)SCCO1	0.48	-0.26
COc1ccccc1-c1noc(CCC(=O)Nc2cccc(C(F)(F)F)c2)n1	0.7	-0.01
Brc1cccc(OCCN2CCCCC2)c1	0.79	0.14
C=CCn1c(=N)c(C(=O)NCCCOC)cc2c(=O)n3ccccc3nc21	1.7	-0.08
COc1ccc(NC(=O)CN(C)C(=O)c2sc3cc(Cl)ccc3c2Cl)cc1	0.1	-0.04
CCCCOC(=O)Nc1ccc(N(C)C)cc1	1.1	1.4
COc1ccc(N2C(=O)C(Cl)=C(N3CCN(Cc4ccccc4)CC3)C2=O)cc1	0.17	1.1
COc1ccc(C(=O)Cn2ccsc2=NC(C)=O)cc1	0.45	-0.22
Cc1ccc(NS(=O)(=O)c2cccc(C(=O)NNC(=O)NC3CCCCC3)c2)c(C)c1	0.91	2.6
COc1cccc(C(O)c2cnc(C(C)C)n2C)c1 (stereo not given)	0.02	-0.01
CCc1ccc(OCC(=O)OCC(=O)c2c(N)n(C)c(=O)n(C)c2=O)cc1	2.3	0.09
CC(=O)Nc1ccc(S(=O)(=O)N2CCC(C(=O)NC3CCCC3)CC2)cc1	1.2	1.4
CNC(=O)c1ccc(NC(=O)CN2c3cccc4cccc(c34)S2(=O)=O)cc1	0.6	-0.04
C/C(=N\NC(=O)C(=O)Nc1cccc(C(F)(F)F)c1)c1ccc(Cl)s1	0.07	0.37
O=c1[nH]n(-c2ccc([N+](=O)[O-])cc2)c(=O)c2ccccc12	1.4	-1.2
CCN(c1ccccc1)c1nc2nonc2nc1NCCO	0.93	0.04
CCn1cc(-c2n[nH]c(=S)n2-c2ccc(C)cc2Br)c(=O)c2ccc(C)nc21	0.67	-2.9
CN(C)CCN(Cc1cc2cc3c(cc2[nH]c1=O)OCO3)C(=S)NCC1CCCO1 (stereo not given)	2	0.51
Cc1ccc(S(=O)(=O)N2CCN(c3ccc([N+](=O)[O-])c4cccnc34)CC2)cc1	0.58	0.44
CCCN1C2CCCC1CC(NC(=O)Nc1cccc(C(C)=O)c1)C2 (stereo not given)	1.1	0.86
C[C@H](NC(=O)c1nc[nH]c1C(=O)NCC(=O)OC(C)(C)C)C(=O)OC(C)(C)C	0.42	-0.05
COCCNC(=O)Cc1ccc(Br)cc1	0.03	1.1
COCCn1c(=NC(=O)c2ccc(S(=O)(=O)N3CCc4ccccc4C3)cc2)sc2cc(S(N)(=O)=O)ccc21	0.51	-0.92
COC(=O)c1cccc(NC(=O)c2ccc[n+]([O-])c2)c1	1.6	-0.3
CCCCOc1ccc(-c2nnn(CC(=O)NCc3ccco3)n2)cc1	0.22	0.02
C(=C\c1ccccn1)/c1ccccn1	0.19	1.9
COc1ccc(N(C(=O)COc2ccccc2)C2C=CS(=O)(=O)C2)c(OC)c1 (stereo not given)	0.61	-0.49
COc1ccc(NC(=O)C2CCCN(S(=O)(=O)c3cccc4cccnc34)C2)cc1OC (stereo not given)	1.5	1.1
O=C(CN1CCN(c2ccc(F)cc2)CC1)NC(=O)NCc1ccco1	0.33	-0.12
CC1CCCCN1CCCNC(=O)c1ccc(Br)cc1 (stereo not given)	2.1	-0.14
Cc1ccccc1Oc1ncnc(N)c1[N+](=O)[O-]	1.8	0.51
CCCN(C(=O)c1cc2c(s1)CCC2)c1c(N)n(Cc2ccccc2)c(=O)[nH]c1=O	0.14	-0.04
CC(=O)c1ccc(Oc2cnccn2)cc1	1.6	-1.1
COc1cc(S(=O)(=O)NCc2ccc3c(c2)OCO3)ccc1F	0.47	0.46
COc1ccc(C(=O)c2c(-c3ccsc3)oc3ccc(-c4ccc(OC)cc4)cc23)cc1	1.4	-0.01
O=C(Cn1ncc2c([nH]c3ccccc32)c1=O)NCC1CCN(Cc2ccccc2F)CC1	0.86	-0.67
CCc1cccc(C)c1NC(=S)N(CCOC)C(C)c1ccco1 (stereo not given)	0.05	-0.58
O=[N+]([O-])c1ccc(NC(=S)N2CCN(c3ccccc3)CC2)cc1	2.6	-1.5

Some of these compounds in order of their number in KCNQ2 pot, low to high.
SMILES	KCNQ2 pot	KCNQ2 pot baseline
CCc1cccc(C)c1NC(=S)N(CCOC)C(C)c1ccco1 (stereo not given)	0.05	-0.58
C(=C\c1ccccn1)/c1ccccn1	0.19	1.9
C[C@H](NC(=O)c1nc[nH]c1C(=O)NCC(=O)OC(C)(C)C)C(=O)OC(C)(C)C	0.42	-0.05
COc1ccc(N(C(=O)COc2ccccc2)C2C=CS(=O)(=O)C2)c(OC)c1 (stereo not given)	0.61	-0.49
O=C(Cn1ncc2c([nH]c3ccccc32)c1=O)NCC1CCN(Cc2ccccc2F)CC1	0.86	-0.67
CCCN1C2CCCC1CC(NC(=O)Nc1cccc(C(C)=O)c1)C2 (stereo not given)	1.1	0.86
COC(=O)c1cccc(NC(=O)c2ccc[n+]([O-])c2)c1	1.6	-0.3

Compound profiles (already shown). Order of values: KCNQ2 pot, KCNQ2 pot baseline
Entry for `Brc1cccc(OCCN2CCCCC2)c1` : 0.79, 0.14
Entry for `C/C(=N\NC(=O)C(=O)Nc1cccc(C(F)(F)F)c1)c1ccc(Cl)s1` : 0.07, 0.37

Other records:
SMILES	KCNQ2 pot	KCNQ2 pot baseline
C=CCn1c(SCC(=O)Nc2ccc3c(c2)CCC3)nc2ccccc2c1=O	3	-0.03
O=C(c1ccc(Cn2c(=O)[nH]c3ccsc3c2=O)cc1)N1CCN(c2ccccc2)CC1	0.29	-0.04
C=CCN(C(=O)CNC(=O)c1ccco1)C(C(=O)NC1CCCCC1)c1ccc(OC)cc1OC (stereo not given)	2	-0.71
COc1ccc(-c2ccccc2)cc1NC(=O)c1cccs1	1.2	-0.95
COc1cc(/C=C2\SC(=S)N(CCC(=O)N3CCN(C)CC3)C2=O)cc(OC)c1OC	0.25	-0.13
CCCCn1c(N)c(N(CC(C)C)C(=O)c2cnc(C)cn2)c(=O)[nH]c1=O	0.25	-3.4
N#CC(C(=O)Nc1ccccc1)=C1Nc2ccccc2N1	0.82	0.06
CCN(CC)c1ccc(S(=O)(=O)N2CCOCC2)cc1NC(=O)CSc1nncs1	1.9	-0.52
CC(C)Oc1cccc(C(=O)N/N=C/c2ccoc2)c1	0.18	0.94
CCOC(=O)c1c(NC(C)=O)sc2c1CCCNC2=O	0.28	0.39
CCOC(=O)Cc1csc(NC(=O)CCCCCN2C(=O)c3cccc4cccc(c34)C2=O)n1	1.5	-0.09
COc1ccc(-c2cc(-c3ccc(Cl)cc3)n[nH]2)c(O)c1	0.6	0
COc1ccc(S(=O)(=O)N(C)CC(=O)N2CCN(c3ccccc3)CC2)cc1	0.87	-1
CCC1(C)CC(C(N)=S)CCO1 (stereo not given)	1	0.85
CCCc1cc(=O)[nH]c2nnc(SCC(=O)NC3CCCC3)n12	0.45	0.01
CCOc1cccc(OCCn2cnc3ccccc3c2=O)c1	0.23	-1.6
O=C(c1ccccc1)c1coc2ccc(O)c(Cl)c12	1.1	-0.43
COc1ccc(CNC(=O)Nc2ccccc2)cc1	3	-1.1
CC(=O)Nc1ccc(S(=O)(=O)NCc2ccc(C(=O)NCCN3CCCCCC3)cc2)cc1	1.5	-1.6
CCN(CC)S(=O)(=O)c1ccc(F)c(C(=O)NCCCN2CCOCC2)c1	0.8	0.5
CN(C)c1ccc(C=Nc2ccccc2)cc1	1.2	-1.7
C=CCc1cccc2cc(NC(C)=O)c(=O)oc12	0.28	-1.6
CCCC/C(C)=N/NC(=O)Nc1ccccc1	0.05	0.01
Cc1ccc(C(NC(=O)N2CCCCC2)=C(Cl)Cl)cc1F	0.19	0.37
O=C(CNc1cccc2ccccc12)N/N=C/c1ccccn1	0.01	-0.07
O=S1(=O)CCN2C(=N1)SC1=C2CCN(Cc2ccccc2)C1	0.39	1.4
COc1cc(CCNC(=O)c2cnn3ccccc23)cc(OC)c1OC	0.91	0.89
O=S(=O)(Nc1cccc2nsnc12)c1ccccc1	0.16	-0.23
Nc1nnnn1/N=C/c1cccc(Br)c1	0.51	-2
Cn1c(C(=O)NCc2ccccn2)cc2c(=O)n(C)c3ccccc3c21	0.93	-0.71
COc1ccc(S(=O)(=O)N2CCN(Cc3ccc4c(c3)OCO4)CC2)c2ccccc12	0.3	0.05
COCCNc1nc(C)cc(-c2cc(-c3ccc(Cl)cc3)on2)n1	2.1	1.5
O=C(CCl)N1N=C(c2ccco2)CC1c1ccco1 (stereo not given)	0.18	0.1
O=C(COc1ccc2c3c(c(=O)oc2c1)CCCC3)NCCN1CCOCC1	0.04	-0.12
CCCCCCCn1ccc(=N)cc1	0.22	-0.41
CCC(C)(C)n1nnnc1C(c1cc2cccc(C)c2[nH]c1=O)N1CCN(C(=O)c2ccco2)CC1 (stereo not given)	1.4	-1
COC(=O)c1nnn(-c2nc(N(C)C)nc(N(C)C)n2)c1C	0.71	0.96
O=C(Cc1ccccc1)NCc1ccc(F)cc1	0.17	-0.08
CC(=O)c1ccc(OC2OCCOC2Oc2ccc(C(C)=O)cc2)cc1 (stereo not given)	0.93	1.8
Fc1cccc(F)c1-c1nc(-c2ccncc2)no1	0.66	0.03

Among those listed so far, these contain a CF3 group.
SMILES	KCNQ2 pot	KCNQ2 pot baseline
COc1ccccc1-c1noc(CCC(=O)Nc2cccc(C(F)(F)F)c2)n1	0.7	-0.01
C/C(=N\NC(=O)C(=O)Nc1cccc(C(F)(F)F)c1)c1ccc(Cl)s1	0.07	0.37

Remaining list, next part.
SMILES	KCNQ2 pot	KCNQ2 pot baseline
N#CC12CCCCC1CC1CCCCC1(C#N)N2Cc1ccccn1 (stereo not given)	1.9	0.02
COc1ccc(OC)c(C2=NOC(C(=O)Nc3cccnc3)C2)c1 (stereo not given)	0.07	2.1
O=S(=O)(NCC(O)c1ccccc1)c1cc(Cl)sc1Cl (stereo not given)	0.13	-1.3
CN(C(=O)CSc1nc2c(cnn2-c2ccccc2)c(=O)[nH]1)C1CCS(=O)(=O)C1 (stereo not given)	1.4	-0.71
CCOC(=O)c1[nH]ncc1CN1CCCC(C(=O)c2cccc(OC(C)C)c2)C1 (stereo not given)	0.44	-0.04
Cc1nn2c(=O)cc(CSc3ccccc3NC(=O)c3ccccc3F)nc2s1	0.84	1.1
Cc1cccc(OCC(=O)NNc2c3ccccc3nc3ccccc23)c1	0.4	-0.12
Cc1ccc(S(=O)(=O)N/N=C/c2ccc(OC3CSC3)cc2)cc1	0.07	0.95
O=C(N/N=C/c1c[nH]c2ccccc12)c1ccncc1	1.3	-0.36
CCOC(=O)C1=C(O)C(=O)N(c2ccc(S(N)(=O)=O)cc2)C1c1ccc(OC)cc1OC (stereo not given)	1.1	0.14
CCc1c(C)nc2cc(-c3cccs3)[nH]n2c1=O	1.8	-0.6
COCCN(C(=O)CSc1nc2ccccc2c(=O)n1CCOC)c1c(N)n(Cc2ccccc2)c(=O)[nH]c1=O	1.7	-3.8
O=C(O)C(F)(F)C(NCc1ccccc1)c1ccccc1 (stereo not given)	1	-0.94
COCCNc1nc(SCC(=O)N2CCN(c3ccccc3OC)CC2)nc2ccccc12	1.9	-1.3
O=C(c1ccccc1)c1c(-c2ccccc2)[nH]n(-c2ccccc2)c(=O)c1=O	0.6	0.07
CC#CC[N+](C)(C)CCCCCCCC	0.01	-1.7
O=C(CCS(=O)(=O)c1cccc2nonc12)Nc1cccc2c1CCCC2	0.25	-1.1
COc1ccccc1C(=O)C1CCCN(C(=O)c2snnc2C)C1 (stereo not given)	0.89	0.64
CCOC(=O)C1CCN(C(=O)N(CC)CC)CC1	1.6	-0.14
O=C(C1CCN(S(=O)(=O)N2CCOCC2)CC1)N1CCc2ccccc21	0.93	-0.91

Rewritten field by field: 2 of the compounds above.
COc1ccccc1C(=O)C1CCCN(C(=O)c2snnc2C)C1 (stereo not given)
  KCNQ2 pot = 0.89; KCNQ2 pot baseline = 0.64
COc1ccc(OC)c(C2=NOC(C(=O)Nc3cccnc3)C2)c1 (stereo not given)
  KCNQ2 pot = 0.07; KCNQ2 pot baseline = 2.1

Other records follow.
SMILES	KCNQ2 pot	KCNQ2 pot baseline
O=C(CSc1ccc(F)cc1)Nc1ccc(N2CCOCC2)cc1	0.06	0.04
S=C(NCCCN1CCOCC1)Nc1ccc(N2CCOCC2)cc1	0.4	0.39
COC(=O)C1CC(=O)c2ccsc2C1 (stereo not given)	1.1	-0.18
O=C(CC1SC2=NCCN2C1=O)Nc1ccc(Br)cc1 (stereo not given)	0.37	1.8
COCCNC(=O)CSc1nc2ccccc2c(=O)n1CCCC(=O)NCc1ccccc1	1	-1.7
COc1cc(OC)cc(C(=O)NC2CCSC2=O)c1 (stereo not given)	1.7	1.5
Cc1occc1-c1nnc(SCC(=O)NC(=O)NC(C)C)n1N	0.18	-0.58
O=C1C(Cl)=C(NC2CCCCC2)C(=O)N1c1ccc(Cl)cc1	0.39	-0.34
O=C(CN1C(=O)COc2ccc(S(=O)(=O)N3CCOCC3)cc21)NCc1ccccn1	0.97	0.3
COc1cc(S(=O)(=O)N(Cc2ccccc2)Cc2ccccn2)ccc1-n1cnnn1	1	-0.96
Cc1ccc(S(=O)(=O)n2cnc3cc([N+](=O)[O-])ccc32)c(C)c1C	0.47	1
CC(C)(O[C@@H]1O[C@H](CO)[C@@H](O)[C@H](O)[C@H]1O)[C@H]1Cc2cc3ccc(=O)oc3cc2O1	0.9	1.2
CC(/C=N/n1c(-c2ccco2)n[nH]c1=S)=C\c1ccccc1	0.74	-0.39
COc1ccc(NC(=O)CSc2nc(=O)n(CCN(C)C)c3c2CCCC3)cc1OC	2.4	-2.8
O=C(Nc1c(Cl)ccc2nsnc12)c1ccc([N+](=O)[O-])o1	0.18	0.13
Cc1c(Br)c([N+](=O)[O-])nn1C(C)C(=O)NCc1cccnc1 (stereo not given)	0.69	-0.23
Cc1c(C(=O)OC2CCCC2C)[nH]c2c1C(=O)CCC2 (stereo not given)	0.46	-0.49
CCC(C)NC(=S)N(CCc1ccccc1)Cc1cc2cc(OC)c(OC)cc2[nH]c1=O (stereo not given)	0.69	-0.97
